# AID504770: growth inhibitors of E. coli YBA685 in a screen for V. cholerae RctB (chromosome II replication) inhibitors. z-score (test concentration not listed). E. coli YBA685 rctB-dependent plasmid, OD600 growth, 3 h; stronger effect = lower value. AID 504770. 130,000 compounds, 0.27% hits;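 active = z-score under -2 on both plates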;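 also: wells of about 30 µL received 100 nL stock; score is relative to mean and SD of the test wells; the first replicate is given; strong numbers were not always called active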
# CapD inh: inhibitors of Bacillus anthracis CapD enzyme | z-score (concentration not given with the values) | AID 492967 | purified CapD enzyme, fluorescence intensity read-out; stronger effect = lower value; some hits fall short of the stated cut | 140,000 compounds, 0.23% hits;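 active = z-score under -4 in either of two replicates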;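 also: stock transfer was 100 nL into about 40 µL; score is relative to mean and spread of the plate; one replicate is shown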
# * = called active by the depositor; i = inactive; x = no result given.
# Sample of the layout (5 entries):
mol,AID504770,CapD inh
Cc1cn2c(-c3ccccc3F)nc(=S)nc2s1,-0.6,1.58
O=C1c2ccccc2C(F)(F)c2c(F)cccc21,1.85,-0.405
COc1cc(OC)c(NC(=O)CSc2nc3n[nH]c(C)c3c(=N)n2-c2cccc(C)c2)cc1Cl,x,0.1
CCCCc1ccc(NC(=O)CSCC(N)=O)cc1,-0.75,0.035
CCCSc1nnc2c(n1)OC(c1cc(Br)c(O)c(OC)c1)Nc1ccccc1-2 (configuration not stated),x,-0.395

# This part in full, from the start:
mol,AID504770,CapD inh
Cc1cn2c(-c3ccccc3F)nc(=S)nc2s1,-0.6,1.58
O=C1c2ccccc2C(F)(F)c2c(F)cccc21,1.85,-0.405
COc1cc(OC)c(NC(=O)CSc2nc3n[nH]c(C)c3c(=N)n2-c2cccc(C)c2)cc1Cl,x,0.1
CCCCc1ccc(NC(=O)CSCC(N)=O)cc1,-0.75,0.035
CCCSc1nnc2c(n1)OC(c1cc(Br)c(O)c(OC)c1)Nc1ccccc1-2 (configuration not stated),x,-0.395
CN(C(=O)c1cc2cc(Br)ccc2oc1=O)C1CCCCC1,-1.75,0.885
COc1cc(N)c(C(=O)c2nccc3cc(OC)c(OC)cc23)cc1OC,-0.65,-1.21
COc1ccc(C2=CC(c3ccccc3Cl)NC(=S)N2)cc1 (configuration not stated),x,0.23
O=C1Cn2c(nc3ccccc32)N1c1cccc(C(F)(F)F)c1,1.2,0.185
COc1ccc(OCC(=O)N2CCc3ccccc32)cc1,0,0.7
O=C(CSCc1ccc2nsnc2c1)Nc1ccccc1,0.8,-0.49
COC(=O)N(c1ccc(Cl)cc1)c1nc(C)cc(C)n1,x,-0.165
OC(CN1CCCCC1)Cn1c2ccccc2c2ccccc21 (configuration not stated),x,9.42
COc1ccc(N2CCN(CCNC(=O)c3ccc4nc5ccccc5c(=O)n4c3)CC2)cc1,-1.3,4.44
OC1(c2ccc(Cl)cc2)CCN(Cc2cn[nH]c2-c2ccccc2)CC1,-1.1,-2.34*
CC(=O)Nc1ccc(NC(=O)C2CCN(c3ccc(C(F)(F)F)cn3)CC2)cc1,0.15,x
O=C(Nn1cnnc1)c1ccccc1CCc1ccccc1,-0.1,0.21
CCCOC(=O)C1=C(C)NC2=C(C(=O)C(C(=O)OC)C(C)C2)C1c1ccc(C)s1 (configuration not stated),-0.9,15.2
CCC(=O)N1CCN(c2nc3c(C)c(Cl)ccc3s2)CC1,1.9,x
CCOC(=O)Cc1cc(=O)n(-c2nc3ccccc3s2)[nH]1,-1.2,3.39
COc1cc(-n2c(C)nc3cc(C(=O)NC4CCCCCC4)ccc32)cc(OC)c1OC,x,-0.02
CNC(=S)Nc1ccc(Cl)cc1,-0.7,-0.085
CN(c1ccc(Br)cc1)S(=O)(=O)c1ccc2[nH]cc(C(=O)NC3CCCCCC3)c(=O)c2c1,x,1.02
Cc1cc(C)cc(NC(=O)CC(NCc2cccnc2)C(=O)O)c1 (configuration not stated),-0.5,16
CCOC(=O)c1cnc2scnn2c1=O,0.2,x
CCCc1cc2c(=O)c(-c3ccccn3)c(C)oc2cc1O,1.15,2.14
O=C(c1ccc(-c2ccc(F)cc2)o1)N1CCCN(S(=O)(=O)c2ccc(F)cc2)CC1,0,x
O=C(Oc1cccc(OC(=O)c2ccccc2F)c1)c1ccccc1F,0.7,-0.05
CC(=O)N1CCN(C2c3cccc4cccc(c34)C2NS(=O)(=O)c2ccc(Cl)cc2)CC1 (configuration not stated),0.05,0.86
COc1cc2nc(COC(=O)c3ccco3)n(CC#N)c(=O)c2cc1OC,-0.4,x
CC(=O)ON(Cc1c(C)no[n+]1[O-])Cc1c(C)no[n+]1[O-],1.55,-1.14
c1ccc(CSc2nccc(-c3ccc4c(c3)CCO4)n2)cc1,-0.6,58.3
CCCCCCc1c(O)nc(SCC(=O)O)[nH]c1=O,-0.35,0.45
O=C(Cc1ccccc1)OCc1nnc(-c2ccccc2)o1,-0.85,-0.57
COc1ccccc1CNC(=O)OCCCc1ccccc1,x,0.02
O=C(c1ccccc1)c1cc(Cl)ccc1NCC(=O)N1CCOCC1,-0.2,x
O=C(NCc1ccco1)c1ccccc1NCC(=O)N1CCCc2ccccc21,0.95,x
CC(Sc1nc(-c2ccccc2)cc(C(F)(F)F)n1)C(=O)N1CCCC1 (configuration not stated),0.65,x
COc1ccc(CN2CCCC(COC(=O)NC(Cc3c[nH]c4ccccc34)C(N)=O)C2)cc1OCc1ccccc1 (configuration not stated),x,-0.33
COC(=O)c1cc(C(O)(C(=O)OC)C(F)(F)F)c(/N=C/N(C)C)s1 (configuration not stated),-1.15,x
Clc1ccc(Cn2c(CNc3ccccc3)nc3ccccc32)cc1,-0.05,-0.01
CCOC(=O)C1CCN(c2nc(-c3cccc(Cl)c3)c3c(n2)-c2ccccc2OC3)CC1,0.95,2.75
O=C(Cn1cc2c(n1)CCCC2)NCCCN1CCCCC1,-0.05,-0.265
CC(C)(C)c1ccc(O)c(NC(=O)OCCCCCc2ccccc2)c1,x,-0.62
O=C(NCCCN1CCOCC1)C1CCC(=O)N1CCc1ccccc1 (configuration not stated),-1.2,0.46
O=S(=O)(c1cccc(C(F)(F)F)c1)N(C1CC1)C1CCN(Cc2ccccc2)CC1,x,-0.44
CC(C)(C)c1ccc(O)c(CN2CCCC2)c1,x,-0.41
O=C(CN1C(=O)c2ccccc2S1(=O)=O)N1CCC2(CC1)OCCO2,0.15,x
COc1cccc(-n2cc(C(=O)N3CCCCCC3)c3ccccc3c2=O)c1,0.05,8.5
CCOC(=O)c1cc2c(=O)n3ccccc3nc2n(CCOC)c1=NC(=O)c1ccccc1,-0.75,10.3
CC1CC(=O)N(CC(=O)Nc2ccc3c(c2)OCCO3)c2ccccc2S1 (configuration not stated),-0.35,-0.295
C=CCOc1nc(-c2cccs2)cc(-c2ccco2)c1C#N,0.15,105
COc1cc(C(=O)NCCSc2ccc(F)cc2)cc(OC)c1OC,x,-0.215
CCOC(=O)C1=C(C)NC2(O)c3ccccc3C(=O)C12O (configuration not stated),x,-0.195
Cc1c(NC(=O)CSc2nnc(-c3cnccn3)s2)c(=O)n(-c2ccccc2)n1C,0.15,x
O=C1CN(CCc2ccccc2)CC(=O)N1CCc1ccccc1,-0.9,-0.31
Cc1ccc(-c2csc(C/C(N)=N/O)n2)cc1,-0.7,x
N=C(N)c1cc(C(F)(F)F)cc(C(F)(F)F)c1,-1,0.35
O=C1C=C(c2ccccc2)OC2(CCCC2)O1,0,-0.155
Cc1ccc(-c2nc3s/c(=C/c4ccc(-c5ccc(Br)cc5)o4)c(=O)n3n2)cc1,x,-0.93

# Profiles from above:
# Cc1ccc(-c2nc3s/c(=C/c4ccc(-c5ccc(Br)cc5)o4)c(=O)n3n2)cc1 is entered as AID504770: x; CapD inh: -0.93
# COc1cc(-n2c(C)nc3cc(C(=O)NC4CCCCCC4)ccc32)cc(OC)c1OC is entered as AID504770: x; CapD inh: -0.02

# Additional results follow:
mol,AID504770,CapD inh
C=C(C)Cn1cnc2ccccc21,-0.25,x
CCOC(=O)c1cc2cccc(NC(=O)c3ccccc3OC(C)=O)c2[nH]1,x,-0.595
CC1(C)CN=c2s/c(=C\c3ccc(Cl)cc3)c(=O)n2C1,1.75,x
O=C(NC(=S)Nc1ccc(N2CCOCC2)cc1)c1ccccc1,-0.25,x
Cc1c(NC(=O)/C(C#N)=C/C=C/c2ccccc2)c(=O)n(-c2ccccc2)n1C,x,-1.25
COc1cc(/C=N/NC(=O)c2cccc([N+](=O)[O-])c2)ccc1OC(=O)OC(C)(C)C,x,0.785
C=CCNc1nc(N)c(C(=O)c2ccc(Cl)s2)s1,-0.7,x
CCC(=O)c1ccc(CCCCCC(=O)O)s1,-0.45,-0.68
Nn1cnn(CC(=O)Nc2nccs2)c1=S,1.65,-0.5
Cc1c(Cl)c([N+](=O)[O-])nn1CC(=O)Nc1cc(Oc2ccccc2)cc(Oc2cccnc2)c1,x,-0.05
CCOC(=O)C1=C(C)NC(=O)CC1c1ccncc1 (configuration not stated),-0.45,-0.68
O=c1c2c(nc3cc(-c4ccccc4)[nH]n13)CSC2,-0.6,1.17
CCC1CCCCN1C(=S)NCc1ccccc1 (configuration not stated),-1.1,-0.16
O=C1C(=O)N(c2ccc(Br)cn2)C(c2ccc(Br)cc2)/C1=C(/O)c1ccccc1 (configuration not stated),x,-0.285
COc1ccc(-c2cc(C(F)(F)F)n3nc(C(=O)N4CCOCC4)c(Cl)c3n2)cc1,x,-0.95
CC(C)(C)c1ccc(/C=c2\sc3nnc(-c4ccccc4)n3c2=O)cc1,x,-0.355
NC(=O)CC1Sc2ccccc2NC1=O (configuration not stated),-0.9,-0.12
Cc1cc(OCc2cn3cccnc3n2)ccc1Cl,-0.55,8.34
O=C1OC(Nc2ccccc2C(F)(F)F)c2ccccc21 (configuration not stated),1.1,x
CC1CCCCN1S(=O)(=O)c1cnc[nH]1 (configuration not stated),-0.5,-0.21
O=C(Nc1cccc(-c2nc3ccccc3o2)c1)c1cccc(OCc2ccccc2)c1,-0.55,-0.915
O=C(COc1ccc(S(=O)(=O)Nc2ccccc2)cc1)N1CCOCC1,-0.5,0.175
O=C(c1ccc(S(=O)(=O)N2CCCCC2)cc1)N(c1ccccn1)C1CCCCC1,-0.75,x
CC(C)N1CCC2=C(C1)C1(C(=O)Nc3ccccc31)C(C#N)(C#N)C(N)=C2C#N (configuration not stated),x,-0.465
COc1ccc(C(=O)COC2=C(C#N)C3(CCCC3)C(C#N)C(=S)N2)cc1OC (configuration not stated),0.4,-0.015
O=C(NCc1cccn1Cc1ccccc1)NC1CCCC1,0.15,0.205
COc1ccc(-c2csc(NC(=O)c3cccs3)n2)cc1,0.85,1.24
COc1ccc(OC)c(C2Nc3ccc4ccccc4c3C3=C2C(=O)CC(C)(C)C3)c1 (configuration not stated),x,49.8
CN(C)c1ccc(/C=C2\C(=O)N(c3ccccc3)N=C2C(=O)O)cc1,-0.05,-0.51
CC(Sc1cccc[n+]1[O-])C(=O)NCC1CCCCC1 (configuration not stated),1.35,x
O=C(Nc1nnc(SCC(=O)N2CCc3ccccc32)s1)c1ccccc1,-0.35,3.63
CCOC(=O)C1=C(C)NN=C(C)C1,-0.95,0.595
CCCn1cc(SCC(=O)Nc2nccs2)c2ccccc21,-0.6,-0.875
CC1(C)CC(=O)C2=C(C1)N(c1ccc(O)cc1)C(=O)CC2c1ccc(Cl)cc1 (configuration not stated),x,0.195
COc1cc2c(cc1OC)C(C)N(C(=O)c1ccc(Cl)cc1Cl)CC2 (configuration not stated),x,-0.78
CC1=C(C(=O)Nc2ccccc2)C(c2ccncc2)C(C#N)=C(SCc2ccccc2)N1 (configuration not stated),x,-0.37
Cc1cc2cc(CNC(=O)/C=C\c3ccc4c(c3)OCO4)ccc2n1C,0.15,8.32
N#C/C(=C\c1ccccc1Cl)c1nc(-c2cc3cc(Br)ccc3oc2=O)cs1,x,0.23
Oc1ccc(I)nc1CCc1ccccc1,-0.55,0.075
CC(C)CN(CC(C)C)c1nnc(NC(=O)c2csc3c2CCCC3)s1,-2.25,-0.78
COc1ccc(C(CC#N)C2CCOC(C)(C)C2)cc1 (configuration not stated),0.9,0.905
CN1C(=O)/C(=C/c2ccc(Cl)cc2)N(C)C1=S,-0.5,-0.445
Cc1ccc(NS(=O)(=O)c2cc(S(=O)(=O)Nc3ccc(C)cc3C)c3cccc4c3c2NC4=O)c(C)c1,x,-0.065
O=C(O)CCCNc1nc(Cl)nc(N2CCCCC2)n1,-0.3,0.14
O=C(NCCOc1ccccc1)c1ccccc1,1.3,-1.27
CCc1ccc(OCC(=O)Nc2cccc(Cl)c2)cc1,-0.4,i
O=c1c2sc3ccccc3c2[nH]c(=S)n1CCCN1CCN(c2ccccc2F)CC1,-0.55,-0.23
O=C(c1cccs1)N1CCc2ccccc2C1,-0.75,-1.22
Cc1ccccc1NC1CC(C)N(C(=O)c2ccc(F)cc2)c2c(C)cccc21 (configuration not stated),x,0.14
O=C(CS(=O)(=O)c1ccc(C(F)(F)F)cn1)NNC(=O)Nc1ccccc1,x,-0.835
O=C(c1cc(-c2cccs2)on1)N1CCCCC1,-0.15,0.13
CCN(CC)CCOC(=O)c1ccc(NC(=O)CCN2C(=O)S/C(=C/c3ccc(OC)cc3)C2=O)cc1,x,-0.865
CCn1c(COC(=O)C2CSC3(C)CCC(=O)N23)nc2cc(S(=O)(=O)N(C)C)ccc21 (configuration not stated),-1.35,x
CSc1nnc(-c2sc3nc(C)cc(C)c3c2N)n1Cc1ccccc1,0,-0.115
CCCCc1nc(NCc2ccccc2)c(C#N)c2c1CCCC2,0.55,13.3
Cc1noc(C)c1S(=O)(=O)N(Cc1ccccn1)Cc1ccccn1,-0.8,0.01
O=C(Nc1c2c(nn1-c1ccc(F)cc1)CSC2)c1ccc(S(=O)(=O)N2CCCC2)cc1,x,-0.04
CC(N)CCc1ccc(Cl)cc1 (configuration not stated),-1.8,x
CC1=C/C(=N/N=c2\sc3ccccc3n2C)CC(C)(C)C1,0.05,x
N#C/C(N)=C(/C#N)NCc1ccccc1Sc1ccc(Cl)cc1,-0.5,-0.39

# New compounds follow.
mol,AID504770,CapD inh
COCCOC(=O)c1c(C)oc2ccc(OC(=O)c3ccc(OC)c(OC)c3)cc12,x,-0.355
N#Cc1ccccc1OCc1ccccc1,0.05,-0.38
CCOC(=O)c1[nH]cc(-c2ccccc2)c1N1CCOCC1,-0.8,-0.545
O=C(O)Cn1c(SC(F)F)nc2ccccc21,-0.75,x
Nc1nnn(Cc2ccccc2)n1,-0.2,-0.065
